# Source: PubChem
# ID4 SMM: binders of human ID4 protein; P47928; small molecule microarray, Flag-ID4 binding, fluorescence F/B; calls only; 31,000 compounds, 1.2% hits; AID 624137;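 active means spot signal over background at p below 0.07 in all four prints; compounds were printed on slides so no solution concentration is given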;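 further: a binder raises fluorescence above local background on the spot; about 2 pmol printed per array spot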
# Target sequence (P47928 whole entry, looked up): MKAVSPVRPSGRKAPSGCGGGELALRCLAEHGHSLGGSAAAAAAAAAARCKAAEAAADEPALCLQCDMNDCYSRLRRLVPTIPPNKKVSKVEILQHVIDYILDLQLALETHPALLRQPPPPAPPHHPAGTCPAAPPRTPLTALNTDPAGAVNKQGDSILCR
# Calls only; i = inactive. Some of the compounds tested (hit frequency here may not be typical).
nr	smiles	ID4 SMM
1	O=C(CSc1nc(-c2ccccc2)cc(=O)[nH]1)Nc1ccc(Br)cc1	i
2	COc1ccc(OC)c(S(=O)(=O)N2CCC(C(=O)Nc3cccc(C(C)=O)c3)CC2)c1	i
3	O=C(C[C@H]1C[C@@H]2c3cc(NC(=O)c4cccnc4)ccc3O[C@@H]2[C@@H](CO)O1)NCCN1CCCCC1	i
4	COc1ccc(-c2nc3ccccc3s2)cc1NC(=O)COc1cccc(C)c1	i
5	COc1ccc(C(=O)Nc2ccc3nc(SCC(=O)Nc4ccccc4F)sc3c2)cc1OC	i
6	Cc1noc(C)c1NC(=O)N[C@H]1CC[C@H](CC(=O)N2CCCCC2)O[C@@H]1CO	i
7	O=[N+]([O-])c1ccc2nc(CSc3ncnc4ccccc34)[nH]c2c1	i
8	O=C(N[C@H]1C=C[C@H](CC(=O)N2CCCCC2)O[C@@H]1CO)c1cccc(F)c1	i
9	COC(=O)c1cc(NC(=O)CSc2nnc(-c3ccccc3O)n2-c2ccccc2)ccc1Cl	i
10	COC(=O)c1c(NC(=S)Nc2nc(C)cc(C)n2)sc2c1CCC2	i
11	CCOC(=O)c1c(-c2cccs2)csc1/N=C/c1c(O)n(C)c2ccccc12	i
12	Cc1nn(C(C)C(=O)Nc2ccc(F)c(Cl)c2)c(C)c1[N+](=O)[O-] (stereo not drawn)	i
13	O=C(C[C@H]1CC[C@@H](NC(=O)C2CC2)[C@H](CO)O1)NC1CCC1	i
14	O=C(OCc1ccccc1O[C@@H]1O[C@H](CO)[C@@H](O)[C@H](O)[C@H]1O)c1c(O)cccc1O[C@@H]1O[C@H](CO)[C@@H](O)[C@H](O)[C@H]1O	i
15	CNC[C@H]1Oc2ncc(C#CC3CCCC3)cc2C(=O)N([C@@H](C)CO)C[C@H]1C	i
16	O=C(C[C@H]1CC[C@@H](NC(=O)Nc2ccc(F)cc2)[C@@H](CO)O1)NCc1cccc(F)c1	i
17	COc1cc(-c2nc3ccccc3s2)ccc1OCC(=O)Nc1ccc(C)cc1	i
18	C=C1[C@@H]2CC[C@H]3[C@]4(C)C[C@H](O)C[C@@H](C(=O)OC)[C@H]4CC[C@]3(C2)[C@H]1O	i
19	COc1cccc(N(CC(=O)O)S(=O)(=O)c2ccccc2)c1	i
20	COC(=O)C[C@H]1C=C[C@@H](NC(=O)c2ccccc2)[C@H](CO)O1	i
21	COc1ccccc1-c1cnc2c(c1)C(=O)N([C@H](C)CO)C[C@H](C)[C@@H](CN(C)Cc1ccncc1)O2	i
22	C/C=C/c1cnc2c(c1)C(=O)N([C@H](C)CO)C[C@H](C)[C@H](CN(C)C(=O)C1CCC1)O2	i
23	CC(C)CC#Cc1cnc2c(c1)C(=O)N([C@@H](C)CO)C[C@@H](C)[C@H](CN(C)C(=O)C1CCCCC1)O2	i
24	Cc1ccc(C)c(OCC(=O)Nc2cccc(-c3nnc(-c4ccco4)o3)c2)c1	i
25	CNC[C@@H]1Oc2ncc(C#CC3CCCC3)cc2C(=O)N([C@@H](C)CO)C[C@@H]1C	i
26	CC(=O)N(C)C[C@@H]1Oc2ncc(-c3ccc(F)cc3)cc2C(=O)N([C@H](C)CO)C[C@@H]1C	i
27	COc1ccc(S(=O)(=O)N(C)CC(=O)Nc2ccccc2Cl)cc1	i
28	CO[C@H](CN(C)Cc1ccc2c(c1)OCO2)[C@@H](C)CN(C(=O)c1ccccc1)[C@@H](C)CO	i
29	Cc1nc(SCC(=O)NCC2CCCO2)c2c3c(sc2n1)CCC3 (stereo not drawn)	i
30	O=C(CC1CC1)Nc1ccc2c(c1)[C@@H]1C[C@@H](CC(=O)N3CCCCC3)O[C@@H](CO)[C@@H]1O2	i
31	O=C(C[C@H]1C[C@H]2c3cc(NC(=O)C4CCOCC4)ccc3O[C@H]2[C@H](CO)O1)NCc1ccc(Oc2ccccc2)cc1	i
32	Cc1ccnc(NC(c2cccc(Br)c2)c2ccc3ccc(C)nc3c2O)c1 (stereo not drawn)	i
33	COc1cc(C)c(Cl)c(C)c1S(=O)(=O)NC1CC(C)(C)NC(C)(C)C1	i
34	COc1cccc(NC(=O)CNC(=O)c2ccc([N+](=O)[O-])cc2)c1	i
35	O=C(CSc1n[nH]c(-c2ccc(Cl)cc2)n1)Nc1cccc(F)c1	i
36	COc1cccc(C#Cc2ccc3c(c2)O[C@@H](CN(C)C)[C@H](C)CN([C@@H](C)CO)S3(=O)=O)c1	i
37	Fc1ccccc1CSc1nnc(-c2cccnc2)n1Cc1ccco1	i
38	C[C@H](CO)N1C[C@H](C)[C@H](CN(C)C(=O)C2CCC2)Oc2ncc(-c3ccccc3F)cc2C1=O	i
39	COc1cc(NC(=O)COc2ccccc2C)ccc1NC(=O)c1ccccc1Cl	i
40	COc1cccc(-c2ccc3c(c2)O[C@@H](CN(C)CC2CC2)[C@@H](C)CN([C@H](C)CO)S3(=O)=O)c1	i
41	CCOC(=O)CCSc1nnc2c3ccccc3n(C)c2n1	i
42	COc1ccc(C)cc1N(CC(=O)Nc1ccc(C)c(Cl)c1)S(C)(=O)=O	i
43	Cc1ccccc1-c1cnc2c(c1)C(=O)N([C@H](C)CO)C[C@@H](C)[C@@H](CN(C)Cc1ccccc1F)O2	i
44	C[C@@H]1CN([C@H](C)CO)S(=O)(=O)c2ccc(C3=CCCCC3)cc2O[C@@H]1CN(C)C(=O)Cc1cccnc1	i
45	CCCC#Cc1cnc2c(c1)C(=O)N([C@@H](C)CO)C[C@@H](C)[C@@H](CN(C)Cc1ccc(F)cc1)O2	i
46	NC(=O)C1(N2CCCCC2)CCN(CC(=O)Nc2cc(Cl)ccc2Cl)CC1	i
47	COC(=O)c1ccc(NC(=O)CN(c2cc(Cl)c(Cl)cc2Cl)S(C)(=O)=O)cc1	i
48	COCC(=O)N[C@H]1CC[C@H](CC(=O)N2CCCCC2)O[C@H]1CO	i
49	C[C@@H]1CN([C@@H](C)CO)S(=O)(=O)c2ccc(-c3cccnc3)cc2O[C@H]1CN(C)C(=O)C1CCCCC1	i
50	O=C(CSc1n[nH]c(-c2ccco2)n1)c1ccc(Cl)cc1	i
51	C[C@@H]1CN([C@H](C)CO)S(=O)(=O)c2ccc(-c3cccc(F)c3)cc2O[C@H]1CN(C)CC1CC1	i
52	Cc1ccc(NC(=O)CC(C(=O)O)N(C)C)cc1 (stereo not drawn)	i
53	COc1ccc(NC(=O)COc2ccc(C)c(C)c2)cc1NC(=O)c1ccco1	i
54	COCC#Cc1ccc2c(c1)O[C@H](CN(C)C(=O)c1ccccc1F)[C@@H](C)CN([C@H](C)CO)S2(=O)=O	i
55	C[C@@H]1CN([C@H](C)CO)C(=O)c2cc(-c3cccc(C(=O)N(C)C)c3)cnc2O[C@@H]1CN(C)C	i
56	C[C@@H]1CN([C@H](C)CO)S(=O)(=O)c2ccc(C3=CCCC3)cc2O[C@@H]1CN(C)C(=O)Nc1ccc2c(c1)OCO2	i

# In the list so far, these contain an aryl thioether with sulfur outside any ring:
nr	smiles	ID4 SMM
1	O=C(CSc1nc(-c2ccccc2)cc(=O)[nH]1)Nc1ccc(Br)cc1	i
5	COc1ccc(C(=O)Nc2ccc3nc(SCC(=O)Nc4ccccc4F)sc3c2)cc1OC	i
7	O=[N+]([O-])c1ccc2nc(CSc3ncnc4ccccc34)[nH]c2c1	i
9	COC(=O)c1cc(NC(=O)CSc2nnc(-c3ccccc3O)n2-c2ccccc2)ccc1Cl	i
29	Cc1nc(SCC(=O)NCC2CCCO2)c2c3c(sc2n1)CCC3 (stereo not drawn)	i
35	O=C(CSc1n[nH]c(-c2ccc(Cl)cc2)n1)Nc1cccc(F)c1	i
37	Fc1ccccc1CSc1nnc(-c2cccnc2)n1Cc1ccco1	i
41	CCOC(=O)CCSc1nnc2c3ccccc3n(C)c2n1	i
50	O=C(CSc1n[nH]c(-c2ccco2)n1)c1ccc(Cl)cc1	i

# The list goes on.
nr	smiles	ID4 SMM
57	C[C@H]1CN([C@@H](C)CO)C(=O)c2cc(-c3cccnc3)cnc2O[C@H]1CN(C)C(=O)Nc1ccc(C(F)(F)F)cc1	i
58	CC(C)CC#Cc1cnc2c(c1)C(=O)N([C@@H](C)CO)C[C@H](C)[C@@H](CN(C)C(=O)c1cccc(F)c1)O2	i
59	Cc1ccc(C)c(OCC(=O)Nc2cccc(-c3nc4ccccc4o3)c2)c1	i
60	CCc1nc(SCC(=O)Nc2ccc(C(=O)OC)cc2)n[nH]1	i
61	Cc1ccc(-c2nc3ccccc3o2)cc1NC(=O)COc1ccccc1[N+](=O)[O-]	i
62	N#C[C@H]1[C@@H](c2ccc(-c3ccccc3F)cc2)[C@@H](CO)N1C(=O)c1ccccn1	i
63	COc1ccc(OC)c(NC(=O)CNC(=O)c2ccccc2F)c1	i
64	O=[N+]([O-])c1ccc(OCCCSc2ncccn2)cc1	i
65	CC(=O)c1cccc(NC(=O)Cn2nc([N+](=O)[O-])c(Br)c2C)c1	i
66	O=C(COc1ccccc1[N+](=O)[O-])Nc1ccc2oc(-c3ccc(F)cc3Cl)nc2c1	i
67	COc1cccc(NC(=O)N(C)C[C@@H]2Oc3ncc(C#Cc4ccncc4)cc3C(=O)N([C@H](C)CO)C[C@H]2C)c1	i
68	COCC#Cc1ccc2c(c1)O[C@H](CN(C)Cc1ccccc1F)[C@H](C)CN([C@H](C)CO)S2(=O)=O	i
69	FC(F)(F)c1ccnc(Oc2ccc(C3=NCCS3)cc2)c1	i
70	Cn1c(NCCO)nc2c1c(=O)n(Cc1ccccc1Cl)c(=O)n2C	i
71	CC(C)CC#Cc1cnc2c(c1)C(=O)N([C@H](C)CO)C[C@@H](C)[C@H](CN(C)Cc1ccccc1)O2	i
72	COCC(=O)N(C)C[C@H]1Oc2cc(C#CC(C)(C)O)ccc2S(=O)(=O)N([C@@H](C)CO)C[C@@H]1C	i
73	CS(=O)(=O)N(CC(=O)N1CCOCC1)c1ccc2c3c(cccc13)CC2	i
74	CCCC(=O)n1nc(-c2ccccc2)nc1NCc1ccco1	i
75	COc1ccc(CNC(=O)C[C@H]2C[C@H]3c4cc(NC(=O)NC5CCCC5)ccc4O[C@H]3[C@H](CO)O2)cc1	i
76	COc1ccc(C(=O)CSc2nnc(-c3ccccc3)n2-c2ccc(Br)cc2)cc1	i
77	CS(=O)(=O)N(CC(=O)Nc1ccc(Cl)c(Cl)c1)c1ccc(I)cc1	i
78	C[C@H](CO)N1C[C@H](C)[C@H](CN(C)C(=O)Nc2ccccc2F)Oc2ncc(-c3ccc(F)cc3)cc2C1=O	i
79	CCOc1ccc(NS(=O)(=O)c2cc(C(=O)O)ccc2OC)cc1	i
80	O=C(O)CCc1ccc(-c2ccc(F)cc2)n1-c1ccc(C(=O)O)cc1	i
81	COc1ccc(NC(=O)N[C@@H]2C=C[C@H](CC(=O)NC3CCC3)O[C@H]2CO)cc1	i
82	CCCN(C)C[C@@H]1Oc2cc(C#CCOC)ccc2S(=O)(=O)N([C@H](C)CO)C[C@@H]1C	i
83	CS(=O)(=O)Nc1ccc2c(c1)[C@H]1C[C@H](CC(=O)NCCc3ccccc3)O[C@H](CO)[C@H]1O2	i
84	Cn1c(=O)c2c(nc(NCc3cccnc3)n2Cc2cccc(C(F)(F)F)c2)n(C)c1=O	i
85	CSc1nc(COc2ccc(C(C)(C)C)cc2)nc(-n2cccc2)c1C#N	i
86	O=C(C[C@@H]1C=C[C@@H](NC(=O)c2ccccn2)[C@@H](CO)O1)NCc1cc(F)cc(F)c1	i
87	C[C@@H]1CN([C@@H](C)CO)S(=O)(=O)c2ccc(C#CC(C)(C)O)cc2O[C@H]1CN(C)CC1CCCC1	i
88	O=C(N[C@@H]1C=C[C@@H](CC(=O)N2CCc3ccccc3C2)O[C@H]1CO)C1CC1	i
89	COCC#Cc1ccc2c(c1)O[C@H](CN(C)C(=O)c1ccccc1F)[C@H](C)CN([C@@H](C)CO)S2(=O)=O	i
90	COc1ccc(-c2nn(C)c(=O)c3ccccc23)cc1NC(=O)Cn1nc(C)c2ccccc2c1=O	i
91	COc1cc(NC(=S)NCCN2CCOCC2)c(OC)cc1Cl	i
92	Cc1ccc(C)c(N(CC(=O)Nc2ccc(Br)c(Cl)c2)S(C)(=O)=O)c1	i
93	CCC(=O)N(C)C[C@@H]1Oc2ncc(C#CCc3ccccc3)cc2C(=O)N([C@H](C)CO)C[C@H]1C	i
94	CNC[C@H]1Oc2ncc(C#CC3CCCCC3)cc2C(=O)N([C@H](C)CO)C[C@H]1C	i
95	COc1ccc(OC)c(S(=O)(=O)N2CCC(C(=O)Nc3cccc(C(F)(F)F)c3)CC2)c1	i
96	CC1CN(c2nc3ccccc3nc2SCC(=O)NCc2ccccc2Cl)CC(C)O1 (stereo not drawn)	i
97	Cc1ccc(NC(=O)CN(C)S(=O)(=O)c2ccc(C)cc2)cc1	i
98	C[C@@H]1CN([C@@H](C)CO)C(=O)Cc2cc(NC(=O)C3CC3)ccc2O[C@@H]1CN(C)Cc1ccccc1	i
99	CCOC(=O)c1c(C)noc1-c1csc(Nc2c(C)cc(C)cc2C)n1	i
100	COC(=O)c1ccc(NC(=O)C(C)N2c3cccc4cccc(c34)S2(=O)=O)cc1 (stereo not drawn)	i
101	CC(=O)Nc1ccc(OCC(O)Cn2nc(C)cc2C)cc1 (stereo not drawn)	i
102	COc1ccc([Si](C)(C)[C@H]2[C@H](CCO)O[C@@]3(C(=O)N(Cc4ccc(N5CCOC5=O)cc4)c4ccccc43)[C@@H]2C)cc1	i
103	C[C@@H]1CN([C@H](C)CO)C(=O)c2cc(Br)cnc2O[C@@H]1CN(C)Cc1ccc(F)cc1	i
104	O=C(COc1ccccc1[N+](=O)[O-])Nc1ccc(-c2nc3cc(Cl)ccc3o2)cc1	i
105	CCn1c(SCC(=O)Nc2ccc3c(c2)OCCO3)nnc1-c1ccncc1	i
106	CCn1c(SCC(=O)Nc2ccc(Br)c(Cl)c2)nnc1-c1ccccc1	i
107	O=C(COc1ccc(Cl)cc1)Nc1ccc(O)cc1C(=O)O	i
108	O=C(O)CSc1cn(Cc2ccccc2)c2ccccc12	i
109	Brc1ccc(-c2cnc3ccccc3n2)s1	i
110	NC(=O)C1CC(=O)N(c2ccc(OCC(=O)Nc3ccccc3F)cc2)C1 (stereo not drawn)	i
